B2AR ag – beta2AR agonists driving receptor internalization, primary screen, cell-based, FAP fluorogen, flow cytometry; Beta-2 adrenergic receptor (Homo sapiens), P07550; Am2.2-beta2AR cells; reference of the scale not given here; response, % (no concentration beside the values); actives 0.43% (n = 340,000); AID 504454, 2011;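 active = response above a set limit, near 3 SD of response in nonfluorescent compounds, cut at about 42% in these data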;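 note: stock transfer was 100 nL into about 11 µL; a reference agonist was the positive control; negative values mostly stem from fluorescent compounds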
UCH37 inh – inhibitors of human UCH37 deubiquitinase, primary screen, biochemical, Ub-AMC cleavage, fluorescence; Ubiquitin carboxyl-terminal hydrolase isozyme L5 (Homo sapiens), Q9Y5K5; purified proteasome/UCH37; inhibition, % (no concentration beside the values); actives 0.33% (n = 330,000);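 active = mean of two replicates above 20%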;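 note: 0% = compound-free wells with enzyme and 100% = wells lacking proteasome; stock transfer was 100 nL into about 20 µL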
Target sequence (Q9Y5K5 whole entry, looked up): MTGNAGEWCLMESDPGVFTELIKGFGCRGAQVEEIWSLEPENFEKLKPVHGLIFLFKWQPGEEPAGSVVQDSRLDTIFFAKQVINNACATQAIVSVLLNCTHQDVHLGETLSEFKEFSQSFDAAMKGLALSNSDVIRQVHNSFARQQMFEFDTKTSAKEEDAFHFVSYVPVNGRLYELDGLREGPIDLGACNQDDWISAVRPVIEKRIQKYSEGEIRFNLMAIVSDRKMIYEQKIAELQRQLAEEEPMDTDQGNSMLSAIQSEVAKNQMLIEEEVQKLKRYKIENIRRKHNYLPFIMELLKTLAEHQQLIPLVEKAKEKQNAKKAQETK
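Material: human UCH37 enzyme supplied as purified proteasome complex / Amount: 0.15 nM proteasome as dispensed / Buffer or medium: pH 7.4 Tris-HCl (50 mM) with ovalbumin, ATP-MgCl2, DTT / Times: preincubation 30 min, reaction 25 min, room temperature / Technique: AMC fluorescence from Ub-AMC cleavage, excitation 355 nm, emission 460 nm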
HNF4A DNA FP – change in binding of human HNF4A to DNA, primary screen, biochemical, fluorescence polarization, FITC-DNA | Hepatocyte nuclear factor 4-alpha (Homo sapiens), P41235 | 1 h | activity change, % at 10 µM | actives 0.3% (n = 360,000) | AID 1224865, 2016; in the data active = activity change above about 30%, passing the limit was not always enough;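 note: controls were the assay level and a saturating level of protein; the project sought stronger binding though the title names inhibitors; some compounds called inactive have numbers as strong as hits; positive values seem to mean higher polarization but the record does not say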
Target sequence (P41235 whole entry, looked up): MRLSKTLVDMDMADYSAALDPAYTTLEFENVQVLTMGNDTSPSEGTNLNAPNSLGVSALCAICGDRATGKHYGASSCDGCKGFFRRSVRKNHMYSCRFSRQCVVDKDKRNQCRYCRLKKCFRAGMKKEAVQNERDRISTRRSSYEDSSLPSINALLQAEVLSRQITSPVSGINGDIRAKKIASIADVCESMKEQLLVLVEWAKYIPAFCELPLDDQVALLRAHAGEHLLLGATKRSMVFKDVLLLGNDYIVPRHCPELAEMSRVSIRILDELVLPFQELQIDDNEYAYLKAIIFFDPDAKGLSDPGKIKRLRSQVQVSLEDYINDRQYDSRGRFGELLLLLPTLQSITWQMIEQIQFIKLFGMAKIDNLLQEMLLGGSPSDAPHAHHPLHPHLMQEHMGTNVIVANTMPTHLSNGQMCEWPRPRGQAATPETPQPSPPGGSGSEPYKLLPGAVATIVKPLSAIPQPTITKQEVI
FGF22 binding – binders of human FGF22 protein, primary screen, FGF22 synaptogenesis inhibitor project, biophysical, thermal shift, single point | calls only at 9.99 µM | recombinant FGF22 thermal shift, SYPRO orange fluorescence; percent of sucrose octasulfate shift, DMSO zero | Fibroblast growth factor 22 (Homo sapiens), Q9HCT0 | actives 1.5% (n = 340,000);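 active = melting point raised past a set limit in the mean and every replicate; three in four hits are not shown here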
Target sequence (Q9HCT0 whole entry, looked up): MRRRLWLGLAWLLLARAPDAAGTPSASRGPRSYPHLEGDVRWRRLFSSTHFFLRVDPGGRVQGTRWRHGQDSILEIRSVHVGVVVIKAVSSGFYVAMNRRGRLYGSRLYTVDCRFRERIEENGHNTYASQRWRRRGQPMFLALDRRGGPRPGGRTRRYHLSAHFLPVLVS
rRNA inh HTS – reduced GFP signal of wild-type E. coli, primary screen, bacterial rRNA inhibitor project, GFP/RFP fluorescence, OD600, single point | E. coli WT GFP vs humanized-ribosome RFP mutants, 24 h; hits give low values; DMSO median 0, no signal -100 | AID 720706, 2013 | actives 1.6% (n = 350,000) | GFP signal change (wild-type ribosome), % (test concentration not listed);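 active = significant combined selectivity score with lowered wild-type GFP, culture density cut under 30%, mutant RFP and density less affected; inactive = any of these conditions unmet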; note: one replicate is shown; some compounds called inactive have numbers as strong as hits
ALR inh – inhibitors of human ALR sulfhydryl oxidase, primary screen, biochemical, H2O2 detection, HRP-luminol luminescence, single point. FAD-linked sulfhydryl oxidase ALR (Homo sapiens), P55789. purified ALR, DTT oxidation. inhibition, % (no concentration beside the values). actives 3.8% (n = 290,000);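 active = mean and each replicate at 75% or more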;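 note: stock transfer was 7.5 nL into about 7.5 µL; 0% = neutral wells and 100% = wells with inactivated enzyme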
E coli growth – E. coli growth inhibition, primary screen, OD600 | actives 0.21% (n = 330,000) | OD600 absorbance (concentration not given with the values) | AID 1053175, 2014 | Escherichia coli growth, 23 h; hits give low values;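 active = OD600 absorbance below the run mean of sample wells minus 3.6 SD, in any replicate, cut at about 0.56 in these data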;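 note: stock transfer was 300 nL into about 60 µL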
rRNA inh HTS OD600 – second read-out of rRNA inh HTS, no call of its own (marks repeat the call); OD600 change, %; measured here: OD600 growth;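 optical density of the mix in the first replicate; 0 = DMSO median and -100 = no signal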
rRNA inh HTS RFP – second read-out of rRNA inh HTS, no call of its own (marks repeat the call); RFP signal change, %; measured here: RFP humanized mutant strains;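 first replicate; 0 = DMSO median and -100 = no signal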
An asterisk follows results filed as active; i = inactive; x = no result given. Some of the compounds tested; the hit share may differ from the screen's.

SMILES	B2AR ag	UCH37 inh	HNF4A DNA FP	FGF22 binding	rRNA inh HTS	rRNA inh HTS OD600	rRNA inh HTS RFP	ALR inh	E coli growth
CC(C)(C)C(=O)C(C(c1ccccc1)N1CCOCC1)N1CCOCC1 (configuration not stated)	2.7	-0.1	1.6	i	6.5	9.5	-2.4	x	0.717
CCCN(CC(=O)Nc1ccccc1C)C(=O)c1ccc(S(=O)(=O)N2CCCC2)cc1	1.4	1.7	2.0	i	5.7	1.1	0.3	3.9	0.653
c1ccc(Oc2cccc(CN3CCCCC3)c2)cc1	-7.4	-1.7	1.1	x	x	x	x	-4.6	0.649
COc1cccc2c(=O)n(CC(=O)N3CCC(C)CC3)ccc12	-0.6	-0.5	2.2	i	5.0	6.8	0.7	-10.4	0.773
Cc1ccc(C(C)C)c(OCCCCN2CCNCC2)c1	7.8	3.6	-0.5	i	4.2	8.1	4.2	4.8	0.65
CCCS(=O)(=O)c1c(S(=O)(=O)CCC)c2ccc(C(N)=O)cn2c1C(=O)OC	2.4	-38.1	4.8	i	-1.8	3.3	-2.0	-4.1	0.711
COc1ccc(C(=O)OCc2cc(=O)oc3cc(C)ccc23)cc1S(=O)(=O)N1CCOCC1	x	x	2.5	i	-0.7	3.9	-1.7	x	x
CS(=O)(=O)Nc1ccc(S(=O)(=O)N2CCCC2)cc1	8.5	-1.0	1.2	i	6.7	0.1	-1.4	-0.8	0.69
O=C(c1nn2c(C(F)(F)F)cc(-c3ccco3)nc2c1Br)N1CCCc2ccccc21	-4.0	4.9	-2.4	x	x	x	x	1.9	0.683
c1ccc(-c2nnc(SCc3nc4ccccc4[nH]3)o2)cc1	-9.9	-4.8	3.0	x	x	x	x	-5.4	0.661
O=C1CS/C(=N/N=C/c2c[nH]c3ccccc23)N1	0.5	x	0.8	i	20.1	14.8	3.1	x	x
CCOc1cc(-c2nnc(-c3ccco3)o2)cc(OCC)c1OCC	-10.0	-12.2	4.6	x	x	x	x	0.6	0.714
O=C(O)c1ccc2c(c1)C(=O)N(c1cccc(C(=O)/C=C/c3ccccc3)c1)C2=O	-1.6	5.6	-3.6	x	-18.1	-14.3	-1.2	17.0	0.707
CCOC(=O)C1CCN(S(=O)(=O)c2ccc3c(c2)CCCN3C(C)=O)CC1	11.1	3.3	-2.3	x	x	x	x	-20.6	0.756
O=S(=O)(c1ccc(S(=O)(=O)N(Cc2cccs2)CC2CCCO2)cc1)N1CCCCC1 (configuration not stated)	-8.2	7.0	3.5	x	x	x	x	x	0.735
COc1ccc(N(CC(=O)Nc2ccc3c(c2)OCO3)S(=O)(=O)c2ccc(F)cc2)cc1	-6.7	2.2	3.0	x	x	x	x	-10.9	0.712
Cc1cccnc1CN1CCN(C(=O)CCc2nnc(CCc3ccccc3)o2)CC1	-4.1	-0.9	-4.2	i	7.1	2.6	0.0	x	0.706
CC1Sc2ccc(S(=O)(=O)CCC(=O)Nc3cc(F)ccc3F)cc2NC1=O (configuration not stated)	1.6	-0.3	0.3	i	-4.3	-2.4	-0.8	-7.0	0.697
O=C(NNC(=O)c1cc(-c2ccccc2Cl)nc2ccccc12)c1csc(N2CCOCC2)n1	2.0	7.0	0.2	x	-55.0	-77.8	-14.6	-1.1	0.711
O=C(OCc1cccc(Cl)c1)c1cc(S(=O)(=O)N2CCCCC2)ccc1N1CCOCC1	1.4	4.5	-2.7	i	3.0	-9.2	2.4	-4.2	0.739
COc1cc(/C=N/n2cnnc2)ccc1OC(=O)c1ccncc1	-4.5	x	-2.4	x	x	x	x	98.2*	x
CCc1ccc(C(=O)CSc2nc(C)cc(=O)[nH]2)cc1	-3.3	4.8	-6.0	i	-27.3*	-11.6*	2.0*	34.2	0.604
CCCOC(=O)c1ccc(NC(=O)Oc2ccccc2)cc1	0.0	0.9	-10.3	i	-7.5	7.7	-0.6	1.5	0.646
Cc1occc1C(=O)NNC(=O)c1ccc(S(=O)(=O)N(C)C)cc1	1.8	-3.3	1.0	i	11.3	14.3	0.6	1.4	0.666
c1cncc(-c2nc3ccccc3s2)c1	-12.1	1.9	3.4	i	1.4	-13.5	-4.9	-9.9	0.634
COc1ccccc1CNC(=O)C(=O)Nc1nccs1	-6.3	0.5	-2.3	i	15.0	5.9	4.1	-5.6	0.68
CCN(CC)CCCn1c2c(c(SCC(=O)Nc3nc(C)cs3)nc1=O)CCC2	-2.0	-0.4	0.6	i	7.2	13.9	0.5	-234.8	0.715
CCOC(=O)CC(NC(=O)c1cc2cccc(OC)c2oc1=O)c1ccc(OC)cc1 (configuration not stated)	3.1	-3.8	-4.4	i	-2.0	-6.0	3.6	1.1	0.676
CC(=O)Nc1ccc(SC[C@H](Cc2ccccc2)N2CC[C@@H](O)CCC2=O)cc1	-1.8	-0.6	-0.3	i	-11.5	-3.5	-2.6	98.9*	x
Clc1nc(NC2CCCCC2)c2cn[nH]c2n1	5.7	-0.8	-0.1	i	-0.9	-4.9	1.1	x	0.684

Whole records as entered above. Screens in order: B2AR ag, UCH37 inh, HNF4A DNA FP, FGF22 binding, rRNA inh HTS, rRNA inh HTS OD600, rRNA inh HTS RFP, ALR inh, E coli growth
COc1cc(/C=N/n2cnnc2)ccc1OC(=O)c1ccncc1 is listed as -4.5, x, -2.4, x, x, x, x, 98.2*, x
CCc1ccc(C(=O)CSc2nc(C)cc(=O)[nH]2)cc1 is listed as -3.3, 4.8, -6.0, i, -27.3*, -11.6*, 2.0*, 34.2, 0.604

More compounds
SMILES	B2AR ag	UCH37 inh	HNF4A DNA FP	FGF22 binding	rRNA inh HTS	rRNA inh HTS OD600	rRNA inh HTS RFP	ALR inh	E coli growth
Cc1c(C(C)CCCO)oc(=O)c2c1Oc1c(C)c(C(C)C[C@@H](C)O)oc(=O)c1C2 (some centres not stated)	2.5	-0.8	-2.6	i	8.4	8.3	0.7	-3.1	x
Cc1nc(NC(=O)C2CC2)sc1C(=O)Nc1ccc(Br)cc1	2.7	-1.0	-1.5	i	-10.9	2.2	1.2	x	0.726
CCN1CCCc2cc(CN(CCN3CCOCC3)C(=S)Nc3cccc(C)c3)ccc21	6.6	5.0	-6.2	i	-4.2	-7.1	35.3	95.3*	0.681
CC(C)(C)c1cc(CCC(=O)NCc2ccccn2)cc(C(C)(C)C)c1O	1.8	1.8	1.4	i	-6.6	-11.4	-2.1	52.7	0.64
COc1ccc2cc(C#N)c(SCC(=O)N3CC(=O)Nc4ccccc43)nc2c1	19.4	-17.4	-0.6	x	x	x	x	-3.6	0.694
NS(=O)(=O)c1ccc(NC(=O)N2c3ccccc3Sc3ccccc32)cc1	-2.0	2.0	x	i	-45.5*	-20.6*	-10.5*	63.1	0.649
CC1=CC(C)(C)N2C(=O)C3(N=C(N)NC(Nc4ccccc4)=N3)c3cc(C)cc1c32 (configuration not stated)	8.9	1.8	-1.6	x	x	x	x	-0.7	0.786
COc1ccc(CN(CC(=O)NCC2CCCO2)C(=O)CCC(=O)Nc2nccs2)cc1 (configuration not stated)	-5.6	1.9	3.8	i	8.6	17.8	1.6	-1.7	0.666
O=C(CC1CCCCC1)NCCS(=O)(=O)N1CCN(c2ccccc2)CC1	1.9	1.3	-1.6	i	14.6	16.1	-0.9	-0.8	0.657
COC(=O)[C@]1(Cc2ccccc2)N[C@H](c2ccc(-c3ccc(OC)cc3)cc2)[C@@H]2C(=O)N(C)C(=O)[C@@H]21	-6.8	1.3	1.3	i	14.1	15.4	-1.7	-3.1	x

Molecules shown so far with a Cl atom (3):
SMILES	B2AR ag	UCH37 inh	HNF4A DNA FP	FGF22 binding	rRNA inh HTS	rRNA inh HTS OD600	rRNA inh HTS RFP	ALR inh	E coli growth
O=C(NNC(=O)c1cc(-c2ccccc2Cl)nc2ccccc12)c1csc(N2CCOCC2)n1	2.0	7.0	0.2	x	-55.0	-77.8	-14.6	-1.1	0.711
O=C(OCc1cccc(Cl)c1)c1cc(S(=O)(=O)N2CCCCC2)ccc1N1CCOCC1	1.4	4.5	-2.7	i	3.0	-9.2	2.4	-4.2	0.739
Clc1nc(NC2CCCCC2)c2cn[nH]c2n1	5.7	-0.8	-0.1	i	-0.9	-4.9	1.1	x	0.684

Additional results.
SMILES	B2AR ag	UCH37 inh	HNF4A DNA FP	FGF22 binding	rRNA inh HTS	rRNA inh HTS OD600	rRNA inh HTS RFP	ALR inh	E coli growth
O=C(NCCc1ccc(Cl)cc1)C1CCCO1 (configuration not stated)	4.7	4.9	3.2	i	-5.1	3.0	0.8	-18.7	0.685
Cn1c(CSc2ncccn2)nnc1SCC(=O)N1CCCCCC1	1.9	2.6	-2.4	i	11.9	10.6	-6.1	5.9	0.638
CC(=O)Nc1cc2c(cc1NC(=O)Cn1nnc(-c3ccc(C)o3)n1)OCCO2	1.5	3.2	3.8	i	6.1	5.7	0.5	-4.0	0.671
CC(C)C(=O)N1CCN(c2ccc(NC(=O)c3cccs3)cc2)CC1	-2.5	4.7	3.3	x	x	x	x	3.5	0.711
CCOC(=O)CSc1nc2ccc(C)cc2cc1C#N	-1.2	3.7	0.5	i	6.1	-3.4	-3.4	-2.8	0.707
Cc1ccc(Cl)cc1NC(=O)COC(=O)c1ccc(N2CCCC2)c([N+](=O)[O-])c1	x	0.9	x	i	15.8	3.4	8.0	18.4	0.729
NC(=O)CSc1nc(-c2ccccc2)c(-c2ccccc2)o1	4.3	-0.8	2.5	x	x	x	x	x	0.656
O=C(Nc1ccc(NC(=S)NC(=O)c2cccs2)cc1)c1ccccc1	-13.7	6.3	3.1	x	x	x	x	-10.3	0.654
COc1cc(OC)cc(C(=O)n2nc(C)cc2C)c1	2.8	0.5	-3.0	i	6.3	5.0	-2.8	2.2	0.732
CN(C)CCNC(=S)Nc1ccc(-c2nc3ccccc3[nH]2)cc1	-24.0	-2.7	1.6	i	1.3	-0.1	-1.3	x	0.578
COC(=O)Nc1ncc(CN2CCc3ccccc3C2)s1	1.8	4.9	-2.9	i	3.6	4.8	2.5	-11.7	0.646
O=C(c1cc2nc(C3CC3)cc(C(F)(F)F)n2n1)N1CCCC1	-6.5	2.9	1.2	x	x	x	x	x	0.696
O=C(/C=C/Nc1ccccc1OC(F)(F)F)C(F)(F)F	-0.8	3.5	1.4	x	x	x	x	-9.4	0.793
O=C(COC(=O)c1cc(C(F)(F)F)cc(C(F)(F)F)c1)NCc1ccc(Cl)cc1	-8.5	-3.2	2.0	i	15.4	-4.5	3.6	-0.7	0.696
O=C1CN(C(=O)N[C@@H](Cc2ccccc2)C(=O)N[C@@H](Cc2ccccc2)C(=O)O)c2ccccc2N1	8.3	2.4	1.9	i	-1.8	6.0	-0.8	-17.5	0.747
Cn1c(N)c(C(=O)c2ccc(F)cc2F)c(=O)n(C)c1=O	-6.6	-1.6	0.2	x	x	x	x	x	0.678
COc1ccc(CCNC(=O)COc2cccc(-n3cnnn3)c2)cc1	8.2	0.3	4.0	i	-2.9	6.2	1.0	x	0.671
O=C(O)CCC(=O)Nc1nc2ccccc2s1	3.2	-1.5	1.8	x	x	x	x	-18.1	0.654
COC(=O)c1[nH]c2cc(OC)ccc2c1NC(=O)CN1CCN(c2cccc(C)c2)C(C)C1 (configuration not stated)	11.9	-9.2	-0.4	x	x	x	x	5.9	0.68
O=c1ccc(-c2ccc(S(=O)(=O)Nc3cccc(Br)c3)o2)n[nH]1	0.6	3.1	-0.6	i	1.7	-24.6	-4.5	-6.9	0.66

Bioassay records deposited in PubChem BioAssay by several laboratories.
